# Mtb bLac sens: beta-lactam sensitization of Mtb H37Rv | M. tuberculosis H37Rv growth with meropenem, percent inhibition; hits of this screen are not shown here | inhibition, % at 25 µM | 0.27% of 330,000 active;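 active = about 74% or more and at least 40 points above the plate without the antibiotic, then above 30% in a dose series; inconclusive = first-round hits that could not be retested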;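 note: growth measured after seven days incubation then overnight dye step; 0% = bacteria only wells and 100% = bacteria with antibiotic; twin plates without the antibiotic show which effects depend on it; some results filed as inactive read as strong as hits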
# Mtb growth: M. tuberculosis H37Rv growth inhibitors, H37Rv strain (AID 1626) | inhibition, % at 10 µM, or IC50 in µM where a hit was titrated | 0.95% of 220,000 active | M. tuberculosis H37Rv growth inhibition; higher % means a stronger effect;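 active = confirmed in a dose series; inconclusive = inhibition above 80% but not taken into the dose series; inactive = below 80% or under 30% at every dose of the series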;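 note: bacteria incubated seven days before Alamar blue readout; 0% = bacteria only wells and 100% = bacteria with antibiotic wells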
# YopH PTP inh: blocks Yersinia enterocolitica YopH tyrosine phosphatase. 0.16% of 140,000 active. inhibition, %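 (about 10 µM by stock and volumes)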. fluorescence Ex485/Em525;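 active = inhibition of 50% or more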;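 note: controls were vehicle for no effect and minimum signal wells for full effect; inactives centre near -20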
# RecA intein inh: Mtb RecA intein splicing inhibition | P9WHJ3 | cell-free RecA intein splicing, fluorescence | inhibition, %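 (about 9 µM by stock and volumes)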 | 0.75% of 290,000 active | AID 2221; in the data active = inhibition above about 30%; inconclusive = no clear call, values can overlap the other calls;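 note: 0% = vehicle wells and 100% = reference inhibitor control wells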
# Target sequence (P9WHJ3 whole entry, looked up): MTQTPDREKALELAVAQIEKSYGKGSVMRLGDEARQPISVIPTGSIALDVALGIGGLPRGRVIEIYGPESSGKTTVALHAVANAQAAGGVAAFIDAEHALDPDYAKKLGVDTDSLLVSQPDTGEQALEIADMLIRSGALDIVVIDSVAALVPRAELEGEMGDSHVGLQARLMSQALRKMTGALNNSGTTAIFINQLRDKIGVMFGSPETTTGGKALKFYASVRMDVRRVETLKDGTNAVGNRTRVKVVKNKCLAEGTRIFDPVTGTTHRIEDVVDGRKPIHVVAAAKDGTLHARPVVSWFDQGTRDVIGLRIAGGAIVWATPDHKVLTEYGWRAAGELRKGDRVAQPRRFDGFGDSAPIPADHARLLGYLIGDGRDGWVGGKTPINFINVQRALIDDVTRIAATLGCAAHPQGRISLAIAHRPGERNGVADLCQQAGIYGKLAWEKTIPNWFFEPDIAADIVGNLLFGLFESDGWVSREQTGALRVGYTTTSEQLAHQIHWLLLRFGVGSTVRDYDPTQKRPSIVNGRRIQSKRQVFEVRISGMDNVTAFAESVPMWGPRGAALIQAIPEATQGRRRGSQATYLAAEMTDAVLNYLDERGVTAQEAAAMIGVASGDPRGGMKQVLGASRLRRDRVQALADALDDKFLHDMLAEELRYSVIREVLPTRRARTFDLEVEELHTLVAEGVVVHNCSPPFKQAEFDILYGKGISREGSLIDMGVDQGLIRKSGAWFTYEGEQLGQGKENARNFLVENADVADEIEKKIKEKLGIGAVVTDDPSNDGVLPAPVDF
# Arbovirus inh: blocks arbovirus infection. arbovirus infection cell-based antiviral screen. inhibition, % at 10 µM. 0.37% of 200,000 active. AID 1251;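 active = inhibition from about 30%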;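 note: bluetongue infection of BSR cells; cell survival read as ATP light after 72 h; 0% = infected wells without compound and 100% = uninfected wells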
# Arbovirus inh repeat: second read-out of Arbovirus inh, no call of its own (marks repeat the call); inhibition, %; measured here: 10K subset replicate screen; many hits read low in the repeat;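 first of two repeat runs on a subset; 0% = infected and 100% = uninfected wells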
# * = called active by the depositor; ? = inconclusive; / = not tested or not shown. These rows are one share of the data; count on the stated rates, not on these rows.
SMILES,Mtb bLac sens,Mtb growth,YopH PTP inh,RecA intein inh,Arbovirus inh,others
O=C(NC(=S)Nc1ccc(Cc2ccncc2)cc1)c1ccccc1Cl,-0.6,45.4%,-23.8,-0.9,-12.1,
O=C(N/N=C/c1cccc([N+](=O)[O-])c1)c1cccc2cc[nH]c12,-1.9,-0.6%,/,-6.4,-7.7,
CS(=O)(=O)c1ccc(C(=O)N2CCN(Cc3ccccc3)CC2)cc1,-3.3,5.0%,/,3.1,-1.0,
COC(=O)C1=C(N)Oc2cc(C)n(CC3CCCO3)c(=O)c2C1c1ccccc1 (stereo not drawn),-7.8,1.6%,-61.0,-0.4,0.2,
Nc1c(S(=O)(=O)c2cccc(Cl)c2)c2nc3ccccc3nc2n1CCN1CCOCC1,3.2,3.2%,-56.0,-8.9,0.9,
CCOC(=O)CC1C(=O)NCCN1S(=O)(=O)c1ccc(C)cc1 (stereo not drawn),-9.3,0.7%,/,0.9,15.9,
CCOC(=O)c1ccc(N2C(=O)CC(C3CCCO3)C2=O)cc1 (stereo not drawn),-5.7,-4.0%,-45.4,0.1,2.8,Arbovirus inh repeat=-0.9
Cc1ccc(N(CC(=O)NCC2CCCO2)S(C)(=O)=O)cc1Cl (stereo not drawn),6.8,-4.3%,-11.5,2.1,-5.1,
CCCc1nnc(NC(=O)C2CC(=O)N(C3CCCC3)C2)s1 (stereo not drawn),8.9,/,/,-3.2,/,
COc1ccc(-c2nnc3sc(-c4ccccn4)nn23)cc1,9.3,1.3%,/,0.2,/,
c1coc(Cn2c(SCc3nc4ccccc4[nH]3)nnc2-c2cnccn2)c1,3.2,-9.5%,-62.0,/,13.6,
COc1ccc(S(=O)(=O)N2CCN(C)CC2)cc1NC(=O)c1ccccc1,-3.4,/,/,-3.0,/,
O=C(NCCC1=CCCCC1)c1ccc(Cl)c([N+](=O)[O-])c1,/,-1.1%,-21.9,3.8,2.1,
COc1ccc(C(=O)C2CCCN(C(=O)c3cc(C)nc(C)n3)C2)cc1OC (stereo not drawn),-0.1,3.5%,/,6.8,17.3,
O=C(c1ccco1)N1CCN(C(=O)c2ccc(COc3ccc(F)cc3)o2)CC1,10.9,-4.7%,-35.1,2.8,-8.3,
CCOC(=O)N1CCN(CC(O)COC2CC(C)CCC2C(C)C)CC1 (stereo not drawn),-5.5,1.6%,20.3,-1.2,-5.7,
O=[N+]([O-])c1ccccc1S(=O)(=O)Nc1cccc(-c2ccc(N3CCCC3)nn2)c1,-17.2,/,/,-0.6,/,
CCN1CCN(C(=O)c2c(-c3c(F)cccc3Cl)noc2C)CC1,3.7,/,-6.2,1.1,-0.9,
Cc1cnc(CNC(=O)CC2C(=O)NCCN2Cc2ccccc2F)cn1 (stereo not drawn),-7.0,/,/,-1.8,/,
O=C(O)c1cc(S(=O)(=O)NCCN2CCNC2=O)ccc1O,?,/,/,-1.0,/,
CCCN1CCC(NC(=O)CCc2nnc(-c3ccccc3)o2)CC1,-4.9,-1.6%,/,-0.4,9.7,
CCOc1ccc(NC(=S)NCC(c2cccnc2)N2CCOCC2)cc1 (stereo not drawn),-6.2,-4.7%,/,-3.2,1.2,
COc1cc(NC(=O)C2=CC(c3ccc(C)cc3)=NS(=O)(=O)N2C)cc(OC)c1OC,0.1,/,/,1.6,/,
Cc1cc(O)c(C(=O)/C=C/c2ccc(C(C)C)cc2)c(=O)o1,89.2,/,/,3.8,/,
O=c1c(CO)cc(CO)cc(CO)c1O,0.1,0.7%,/,-3.5,/,
COc1cc(SC)ccc1C(=O)Nc1nccs1,2.3,-10.8%,/,/,-2.6,
CCN(CC)C(=O)CSc1nc(O)cc(=O)n1CC,-1.8,0.7%,-22.7,5.6,4.6,
CC/C(=N\NC(=O)C1CCCC1)c1cccc(Br)c1,0.3,/,/,-1.5,/,
Cc1ccc(S(=O)(=O)N2CCCCCC2)cc1C(=O)NCc1ccccn1,8.4,/,/,-2.6,/,
OCCC1CN(Cc2cccc3c2OCO3)CCN1C1CCCC1 (stereo not drawn),-6.4,-3.1%,/,-0.5,0.8,
O=C(Cc1csc(NC(=O)Nc2ccc(Cl)cc2)n1)NC1CCCC1,-4.0,/,/,0.4,/,
O=C(NC(NC(=S)Nc1c(Cl)cccc1Cl)C(Cl)(Cl)Cl)c1cccc([N+](=O)[O-])c1 (stereo not drawn),?,6.7%,3.1,-2.5,-41.4,
O=C(NN=C1CCN(Cc2ccccc2)CC1)c1ccccc1O,8.5,-5.0%,/,-3.7,-4.3,
O=C1N/C(=N\c2ccccn2)SC1Cc1ccccc1Cl (stereo not drawn),13.8,9.9%,/,0.4,/,
O=C(CN1CCOCC1)Nc1ncc(Cc2ccccc2Cl)s1,-5.5,9.0%,0.6,2.3,7.1,
CCOC(=O)C1CCN(/C=C2/C(=O)NC(=O)N(c3cccc(C)c3C)C2=O)CC1,0.7,0.5%,/,-1.4,3.5,
O=C(CSCc1c(F)cccc1Cl)Nc1ccccc1C(=O)N1CCOCC1,3.2,-2.6%,/,0.1,-3.1,
COc1ccc(Cl)cc1NC(=O)c1ocnc1C,-6.7,-0.2%,-59.9,1.3,-0.9,
COC(=O)c1ccc2[nH]ccc2c1,-6.5,/,/,4.0,/,
CCc1ccccc1NC(=O)CSc1nc2ccccc2nc1N1CCOCC1,5.3,/,/,-4.4,/,
O=C(CCCN1C(=O)[C@H]2CC=CC[C@H]2C1=O)NCc1nc(-c2ccccc2)no1,-0.2,/,/,1.0,/,
Cc1cccc(C(=O)NN/C=C/C(=O)c2ccccc2)c1,1.1,/,/,8.2,/,
CN(Cc1cccnc1)C(=O)c1cc(COc2ccc3c(c2)CCCC3)on1,?,/,/,8.0,/,
Cc1nc2ccc(Cl)cc2c(-c2ccccc2)c1C(=O)O,13.2,6.7%,-47.1,2.5,3.8,
Cc1ccc2oc3nc(C)c(C(=O)O)cc3c(=O)c2c1,0.4,-0.5%,-39.5,-0.5,-2.6,
Cc1cccc(NC(=O)c2ccc(S(=O)(=O)N3CCCC3)cc2)c1C,-1.4,/,/,1.3,/,
CCNC(=O)CC1C(=O)N(c2ccc(F)cc2)C(=O)N1Cc1cccs1 (stereo not drawn),-5.1,-1.1%,/,-0.8,2.1,
CC(=O)c1ccc(-c2ccc(C(=O)N3CCN(c4ccc(F)cc4)CC3)o2)cc1,3.6,16.2%,/,-1.5,9.7,
O=C(COc1ccccc1Cl)N1CCN(c2ccc([N+](=O)[O-])c(N3CCOCC3)c2)CC1,14.2,5.5%,-19.1,4.6,3.4,
O=C(Nc1ccc2c(c1)OCCO2)C(=S)NCc1ccccc1,6.5,-0.2%,/,0.6,-1.7,
O=C(c1cc(Cl)ccc1[N+](=O)[O-])n1cnc2ccccc21,-9.5,-2.0%,2.3,8.3,8.5,
CS(=O)(=O)N1CCc2cc(C(=O)Nc3ccccc3)ccc21,-12.5,-8.3%,/,0.0,-5.5,
O=C(O)/C=C/C(=O)NC1CC1,2.4,-1.4%,/,0.0,11.0,
CN(C)CC(O)COc1cc2ccccc2cc1C(=O)N1CCCCC1 (stereo not drawn),0.1,-3.0%,-31.2,-4.7,6.3,
CC1CC(C)CN(CCCNC(=O)c2ccc3nc(N4CCOCC4)sc3c2)C1 (stereo not drawn),-6.4,/,/,1.4,/,
CCN(CC)CCOc1cccc(C(C)C)c1,4.3,-3.4%,-22.8,0.0,0.4,
O=C(CSc1nncs1)N1c2ccccc2Sc2ccccc21,-17.8,3.9%,-12.1,9.0,-9.2,
C#CCSc1ncc(S(=O)(=O)c2ccccc2)c(=O)[nH]1,-4.7,3.0%,/,2.3,30.1*,
O=C(c1cc(C2CC2)on1)N1CCOCC1,4.3,-4.5%,-41.0,-1.7,5.8,Arbovirus inh repeat=-2.6
O=c1c(Cc2ccc(F)cc2)c(O)ccn1CCCN1CCOCC1,-1.6,1.1%,/,-0.6,5.4,

# Looked up by structure from the entries so far, seven records:
SMILES,Mtb bLac sens,Mtb growth,YopH PTP inh,RecA intein inh,Arbovirus inh,others
O=C(c1cc(Cl)ccc1[N+](=O)[O-])n1cnc2ccccc21,-9.5,-2.0%,2.3,8.3,8.5,
C#CCSc1ncc(S(=O)(=O)c2ccccc2)c(=O)[nH]1,-4.7,3.0%,/,2.3,30.1*,
Cc1cccc(NC(=O)c2ccc(S(=O)(=O)N3CCCC3)cc2)c1C,-1.4,/,/,1.3,/,
Cc1cccc(C(=O)NN/C=C/C(=O)c2ccccc2)c1,1.1,/,/,8.2,/,
CN(C)CC(O)COc1cc2ccccc2cc1C(=O)N1CCCCC1 (stereo not drawn),0.1,-3.0%,-31.2,-4.7,6.3,
Cc1ccc2oc3nc(C)c(C(=O)O)cc3c(=O)c2c1,0.4,-0.5%,-39.5,-0.5,-2.6,
CCNC(=O)CC1C(=O)N(c2ccc(F)cc2)C(=O)N1Cc1cccs1 (stereo not drawn),-5.1,-1.1%,/,-0.8,2.1,

# Following part
SMILES,Mtb bLac sens,Mtb growth,YopH PTP inh,RecA intein inh,Arbovirus inh,others
O=C(O)CC(CNS(=O)(=O)c1ccccc1)c1ccccc1 (stereo not drawn),-4.7,-12.7%,-32.4,-0.4,5.2,Arbovirus inh repeat=3.7
C=CCC(=O)NC1CCCc2c1cnn2-c1cc(F)cc(F)c1 (stereo not drawn),-7.5,/,/,-0.5,/,
O=c1c2c3c(sc2n(CCN2CCCC2)c(=O)n1Cc1ccco1)CCCCC3,14.3,49.2%,-19.7,3.2,-24.9,
C=CCNC(=O)O/N=C/c1csc([N+](=O)[O-])c1,-6.6,-1.9%,/,/,/,
OCCC1CN(Cc2cccn2-c2ncccn2)CCN1Cc1ccccc1 (stereo not drawn),-7.7,-5.4%,/,-0.3,6.9,
Cn1c(SCC(=O)NCc2ccccc2)nc2c([nH]c3ccccc32)c1=O,1.0,-2.9%,/,-0.2,-10.7,
COC(=O)c1ccc(C2C(C(=O)c3ccco3)=C(O)C(=O)N2c2cc(C)on2)cc1 (stereo not drawn),3.7,/,/,0.1,/,
COc1cc2ccccc2nn1,4.7,-7.1%,/,-167.2,/,
CCOC(=O)CNC(=O)CSc1nnc(Cn2c(=O)sc3ccccc32)n1-c1ccccc1C,7.6,3.3%,-19.5,/,2.4,
CCC(C)NC(=O)CN(c1cc(Cl)ccc1OC)S(C)(=O)=O (stereo not drawn),-1.7,-6.7%,-20.1,-2.1,-5.2,
CCOC(=O)c1c(NC(=O)CSc2nc3cc(Cl)ccc3s2)sc(C(C)=O)c1C,-2.9,2.5%,-26.1,3.3,9.9,
CCc1nnc(NC(=O)C2CCCN(c3nc(C)cc(C)n3)C2)s1 (stereo not drawn),-10.1,-7.4%,-5.5,1.8,8.6,
CCOC(=O)C1=C(C)N=C2SC(C)C(=O)N2C1c1ccc(C(=O)OC)cc1 (stereo not drawn),4.3,6.6%,-27.4,1.1,-5.3,
COc1ccc(NC(=S)N(C(C)C)C2CCN(C(C)C)CC2)cc1Cl,63.0,/,/,2.0,/,
Cc1onc(-c2ccccc2Cl)c1C(=O)NCCN1CCOCC1,-0.9,-0.8%,-0.9,-1.3,5.7,
COc1ccccc1N1Cc2ccc(OC)c(OC)c2C1=O,-6.8,/,/,0.3,/,
CCOC(=O)c1sc(N2C(=O)C(O)=C(C(=O)c3ccco3)C2c2cccc([N+](=O)[O-])c2)nc1C (stereo not drawn),-13.0,/,/,22.6,/,
Cc1scc(C(=O)NCc2ccco2)c1-c1ccccc1,85.7,2.81µM*,-51.3,8.9,6.1,
COCC(C)NC(=O)Cc1ccc(Cl)cc1 (stereo not drawn),-4.0,1.9%,/,-1.2,5.0,
COc1ccc(NC(=O)N(CCC(C)C)C(C)c2ccccn2)c(OC)c1 (stereo not drawn),3.6,2.7%,-16.7,0.6,-4.8,Arbovirus inh repeat=-6.2
CN1CC(=O)NC1=NC(=O)c1cc(F)c(F)cc1Cl,59.9,35.6%,-42.0,/,1.4,
Cc1ccc(CCSc2ccc(F)cc2)cn1,4.8,0.7%,/,-3.8,/,
COc1cccc(N(CC(=O)N2CCCCCC2)S(C)(=O)=O)c1,0.7,/,/,-1.1,/,
COc1ccccc1OCCNC(=O)c1ccc(C)c(S(=O)(=O)N2CCOCC2)c1,-8.2,/,/,0.2,/,
Cc1cc(C)cc(N(C(=O)C(F)(F)F)C(C(=O)NC2CCCCC2)c2cccs2)c1 (stereo not drawn),5.0,-1.2%,-50.4,-1.3,8.8,
Cc1ccc(N(C(C)C(=O)Nc2ccc(S(=O)(=O)N3CCOCC3)cc2)S(C)(=O)=O)cc1 (stereo not drawn),3.1,-11.9%,-39.3,1.7,12.6,
CCOC(=O)c1cccc(NC(=O)CSc2nnc(-c3ccoc3C)n2CCOC)c1,-7.5,4.5%,11.1,-0.7,10.5,
